NPYLR7 ag: mosquito NPYLR7 agonism. HEK293T NPYLR7/Galpha15, GCaMP6s calcium fluorescence. activation, % at 10 µM. 0.15% of 270,000 active. AID 1259423; in the data active = activation above about 40%;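 note: 0% = vehicle and 100% = reference agonist at the receptor; some compounds past the cut are filed as inactive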
NPYLR7 ag max-min: further read-out of NPYLR7 ag, marked with its call; activation, %; measured here: Max-Min RFU normalised activation; some inactives read as strong as hits;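 span of the calcium signal over five minutes; 0% = vehicle and 100% = native peptide agonist; compound fluorescence can raise it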
The depositor's hits bear a star; & = joins results of further samples. Not all compounds are listed; count on the stated rates, not on these rows.

SMILES	NPYLR7 ag	NPYLR7 ag max-min
CC(CCc1ccccc1)NC(=O)C(C1CCCC1)N1CCN(C(=O)Nc2cccc(Cl)c2)CC1 (stereo not given)	-2	2
CCN(CC)C(=O)C1CC(=O)N(c2cc(OC)c(OC)c(OC)c2)C1 (stereo not given)	6	3
Cc1nn2c3c(nnc2c1-c1ccccc1)C(=O)CCC3	-16	-22
Cc1cc(C(=O)N/N=C\C=C\c2ccco2)no1	9	13
O=C(Cc1ccccc1)N/N=C(\c1ccccc1)C(O)c1ccccc1 (stereo not given)	5	3
O=c1c2ccccc2nc2c3ccccc3c(Sc3ccccc3)nn12	-2	-3
COCCNC(=O)c1csc(COc2ccc(F)cc2)n1	-20	-19
CCCCn1c(CCC(=O)N2CCC(=O)CC2)nc2c1c(=O)[nH]c(=O)n2CCC	4	4
CC1CCCc2sc3nc[nH]c(=O)c3c21 (stereo not given)	2	3
O=C(Nn1cnc2c(cnn2-c2ccccc2)c1=O)c1cc([N+](=O)[O-])ccc1Cl	3	-1
FC(F)(F)c1ccc(Nc2cc3c(cn2)ncn3CC2CC2)cc1	16	14
CCOc1ccc(C2CC(c3ccc(C)c(C)c3)=NN2C(=O)CN2CCN(c3ccccc3F)CC2)cc1 (stereo not given)	2	6
COC(=O)CNC(=O)c1cc(-c2ccc(F)cc2)nc2ccccc12	-18	-24
COc1ccc(-c2nc3ccccc3c(=O)n2Cc2ccc(F)cc2)c(OC)c1OC	3	-1
O=c1c2nnn(Cc3ccccc3F)c2ncn1Cc1ccccc1	-1	1
O=C(NCCc1ccco1)c1csc(-c2cccs2)n1	0	0
CCCNC(=O)Cn1nc2c(c1NC(=O)COC)CSC2	-8	-14
CC(=O)Nc1cc(F)ccc1-c1csc(NC(=O)c2cccc(C)c2)n1	9	3
COC(=O)c1cccc(N2C=C(C(=O)N3CCCCC3)S(=O)(=O)c3ccccc32)c1	4	5
Cc1nn(C(C)(C)C)c(OC(=O)c2ccccc2[N+](=O)[O-])c1S(=O)(=O)c1ccccc1	3	3
O=C(O)c1ccc([C@H]2CN(Cc3cc(Br)cs3)C[C@@H]2O)cc1	22	14
Cc1cccc2sc(N(Cc3cccnc3)C(=O)c3ccc([N+](=O)[O-])cc3)nc12	-5	1
CCC(CC)C(O)CNC(=O)Cc1c[nH]c2ncccc12 (stereo not given)	6	4
CC(=O)O[C@@H](C)C(=O)N1CCC(n2c(=O)[nH]c3ccccc32)CC1	2	1
Cc1c(CO)cccc1NC(=O)c1cccc(CN2CC=CC2)c1	0	-1
CNc1nc(Nc2ccc(C)cc2C)c2nccnc2n1	6	4
O=C(NCc1cccnc1-n1ccnc1)c1cn2ccsc2n1	6	6
O=C(O)c1cncnc1/C=C/c1ccccc1Br	7&-5	7&-4
O=C(N/N=C\c1coc2ccccc2c1=O)c1ccccc1Cl	14	13
CC1CCC2(CC1)NC(=O)N(CC(=O)NC(C)(C)C)C2=O (stereo not given)	-4	-4

An excerpt of these results, comma-delimited.
structure,NPYLR7 ag,NPYLR7 ag max-min
O=C(O)c1cncnc1/C=C/c1ccccc1Br,7&-5,7&-4
O=C(O)c1ccc([C@H]2CN(Cc3cc(Br)cs3)C[C@@H]2O)cc1,22,14
CC(=O)O[C@@H](C)C(=O)N1CCC(n2c(=O)[nH]c3ccccc32)CC1,2,1
CC(=O)Nc1cc(F)ccc1-c1csc(NC(=O)c2cccc(C)c2)n1,9,3
CCCNC(=O)Cn1nc2c(c1NC(=O)COC)CSC2,-8,-14
COC(=O)c1cccc(N2C=C(C(=O)N3CCCCC3)S(=O)(=O)c3ccccc32)c1,4,5
Cc1c(CO)cccc1NC(=O)c1cccc(CN2CC=CC2)c1,0,-1

Going on with the list:
SMILES	NPYLR7 ag	NPYLR7 ag max-min
Cc1ccc(C)c2[nH]c(=O)c(CCNC(=O)C3c4ccccc4Oc4ccccc43)cc12	10	8
O=C(c1cn(CCC2CCCCC2)nn1)N1CCCC1c1ccccn1 (stereo not given)	-7	-8
Cc1ccc(CN2CCN(Cc3cccnc3)CC2CCO)o1 (stereo not given)	6	2
CCOc1ccc(CCN=C=S)cc1OCC	3	9
CS(=O)c1ccc(-c2nc(-c3ccc(F)cc3)c(-c3ccncc3)[nH]2)cc1 (stereo not given)	-9	-13
CC1SC(c2cccc(F)c2)N(CCN(C(=O)c2ccccc2Cl)C(C)C)C1=O (stereo not given)	15	22
CNS(=O)(=O)c1cc(C(=O)O)co1	0	-1
O=[N+]([O-])c1cn(-c2ccccc2)nc1-n1nnc2ccccc21	-12	-19
COc1ccc2sc(N(CCN(C)C)C(=O)/C=C/c3cccs3)nc2c1	-8	-12
CCN1C(=O)CC(Sc2ncccc2C(=O)O)C1=O (stereo not given)	-9	-12
c1ccc(C2CCCN(CCNC3CCSCC3)C2)cc1 (stereo not given)	-2	-7
CCOc1ccc(-c2nnc3ccc(SCC(=O)Nc4ccc(C)c(Cl)c4)nn23)cc1	16	15
Cc1ccc(S(=O)(=O)NC(=O)C2(C)CCN2C(=O)Cc2ccsc2)cc1 (stereo not given)	0	-1
CCN=C1NN=C(c2ccc(NC(C)=O)cc2F)CS1	4	2
CCc1nn(CC(=O)NC(C)CCc2ccco2)c(=O)c2cc3occc3n12 (stereo not given)	28	25
CCNC(=O)NC(=O)C(C)Sc1nc2ccccc2c(=O)n1CCOC (stereo not given)	-5	-6
O=C(NCCc1ccc(Cl)cc1Cl)c1cc2n(n1)CCN(Cc1cccc(C(F)(F)F)c1)C2=O	14	0
CCOC(=O)C(=O)N1CCc2cc(OC)c(OC)cc2C1c1ccc(OC)cc1 (stereo not given)	13	8
CCn1c(=O)c(C(=O)NCC2CC2)nn(-c2ccccc2F)c1=O	19	21
CCCc1ccccc1N1C(=O)CSC1c1ccc(NC(=O)c2ccc(F)cc2)cc1 (stereo not given)	7	15
Cc1ccc(NCc2nc3sc4c(c3c(=O)n2CC#N)CCCC4)cc1	20	4
CCCN(CC1CC(c2ccccc2C)=NO1)C(=O)NC(C)C (stereo not given)	11	22
N#CC(=Cc1cc(Br)cc(Br)c1O)S(=O)(=O)c1ccccc1	-3	-6
CC1(Cc2ccc(S(C)(=O)=O)cc2)C(=O)Nc2ccc(-c3ccc(F)cc3)cc21 (stereo not given)	0	6
CC1(C(=O)N2CCCC2)CCN1C(=O)Cc1cccs1 (stereo not given)	-1	-1
O=C(NCc1cccc2ccccc12)Nc1ccc2c(c1)CCCN2C(=O)C1CC1	-8	-9
O=C1NC(=O)C2(CCCCCCCCCCC2)N1	2	-4
CCOc1ccc(CN2CCCC(C(=O)Nc3ccc(-c4ccn[nH]4)cc3)C2)cc1 (stereo not given)	6	5
COc1ccccc1-c1nc(C(N)=O)c2[nH]c(=O)n(-c3cccc(Cl)c3)c2n1	4	18
Cc1nnnn1Cc1ccc(C(=O)N2CCOC(C(F)(F)F)C2)cc1 (stereo not given)	7	5
CC(=O)NNC(=O)c1nn(-c2ccccc2)c(=O)c2ccccc12	9	12
C=CCN(Cc1ccccc1C)C(=O)c1cc(C)nn1CC	8	2
O=C(NC(c1ccc(-c2ccccc2)cc1)c1cnccn1)C1CCNCC1 (stereo not given)	3	-2
CC(C)C[C@H]1CN(C(=O)c2cccc3nccnc23)CC[C@@]1(C)O	1	10
CCCCCCc1ccc(C(=O)NC(C)c2nc3cc(Cl)ccc3c(=O)n2C)cc1 (stereo not given)	10	17
Cc1ccc(-n2nc3c4nonc4ccc3[n+]2[O-])cc1	15	6
CN(C)c1ccc(C=NNC2=Nc3cccc4cccc2c34)cc1	4	2
CN1[C@H]2CC[C@@H]1CN(C(=O)CCCNCc1ccccc1)CC2	6	8
COCCn1c(N2CCN(CC=Cc3ccccc3)CC2)nc2c1c(=O)[nH]c(=O)n2C	8	3
CN(C)c1ccc(NC(=O)c2cccc(F)c2)cc1CN(CC1CCCO1)C(=O)c1ccco1 (stereo not given)	3	19
CN1C(=O)N(CCCc2ccncc2)C(=O)C12CCN(CC1=CC[C@H]3C[C@@H]1C3(C)C)CC2	6	1
Cc1ccc(N=Cc2cc([N+](=O)[O-])cc(Br)c2O)nc1	-3	-5
O=C(Nc1ccc(S(=O)(=O)N2CCCCC2)cc1)c1ccc(Cl)o1	1	8
O=C(Cc1ccc(Cl)cc1)Nc1ccc(Nc2ccc(-n3cccn3)nn2)cc1	-5	-10
CCCn1c(SCc2nc(-c3ccc(C)c(F)c3)no2)nc2ccccc2c1=O	7	5
Cc1ccc(NC(=O)CSc2nnc3scc(-c4ccccc4)n23)cc1	-3	-8
Cc1cc(C(F)(F)F)n(-c2ccc(N)cc2)n1	0	-3
CN1CC2(CCN(Cc3nccn3Cc3ccccc3)C2)OC1=O (stereo not given)	19	18
CC(C)(C)c1ccc(/C=N\n2cnc3ccc(Br)cc3c2=O)cc1	5	5
CCOC(=O)c1c(NC(=O)Cc2ccccc2)sc(C(=O)Nc2cccc([N+](=O)[O-])c2)c1C	-4	9
CC(C)(C)CN1CCC(Oc2ccc(C(=O)NCC3CCOCC3)cc2Cl)CC1	-3	-10
Cc1cc(C(=O)CN2C(=O)C(=O)N(C(C)C)C2=O)c(C)n1CCc1cccs1	0	21
O=C(CCn1cccc1)N1CCC(c2ccnc(-c3ccc(CO)cc3)c2)C1 (stereo not given)	-3	-6
COc1ccc(-n2nc(C(=O)NC(C)c3ccccc3)c(=O)n(Cc3ccccc3)c2=O)cc1 (stereo not given)	10	7
COc1ccc(C(=O)O)c(O)c1OC	-13	-14
O=C(CCc1cc2c(n1-c1ccc(F)cc1Cl)-c1ccccc1CO2)NCC1CCCO1 (stereo not given)	2	0
Cc1ccccc1Cn1cnc2c(cnn2CCNC(=O)c2ccc(Br)o2)c1=O	-6	-12
CCCCN(Cc1cccn1Cc1cccc(C)c1)C(=O)CN(CCC)C(=O)c1cc(OC)cc(OC)c1	1	13
C(/C=C/c1ccco1)=N/Nc1nc(N2CCOCC2)nc(N2CCOCC2)n1	16	0
COc1ccc(-c2cn(CC3CCS(=O)(=O)C3)nn2)cc1OC (stereo not given)	2	-1

Another view of 5 compounds above.
compound | NPYLR7 ag | NPYLR7 ag max-min
CC(C)(C)CN1CCC(Oc2ccc(C(=O)NCC3CCOCC3)cc2Cl)CC1 | -3 | -10
Cc1cc(C(=O)CN2C(=O)C(=O)N(C(C)C)C2=O)c(C)n1CCc1cccs1 | 0 | 21
COc1ccc(-n2nc(C(=O)NC(C)c3ccccc3)c(=O)n(Cc3ccccc3)c2=O)cc1 (stereo not given) | 10 | 7
O=C(CCc1cc2c(n1-c1ccc(F)cc1Cl)-c1ccccc1CO2)NCC1CCCO1 (stereo not given) | 2 | 0
Cc1ccccc1Cn1cnc2c(cnn2CCNC(=O)c2ccc(Br)o2)c1=O | -6 | -12

Carrying on:
SMILES	NPYLR7 ag	NPYLR7 ag max-min
CCCCC(N=C1NS(=O)(=O)c2ccccc21)C(=O)NC1=NCCS1 (stereo not given)	-1	-3
CCN(C)C(=O)C1CSCN1C(=O)c1nc(Cl)ccc1Cl (stereo not given)	3	1
COC(=O)[C@@H]1[C@H](C(=O)NC(c2ccc(F)cc2)c2ccc(SCc3ccccc3)cc2)[C@@H]2C=C[C@H]1C2 (stereo not given in full)	-6	-11
Cc1nc2n(n1)C(=O)C(C(c1ccc(F)c(F)c1)N1CCC3(CC1)OCCO3)S2 (stereo not given)	2	1
CCOc1cccc(-c2csc(CN3CCNCC3)c2)c1	13	11
Cc1cc(Oc2ccc([N+](=O)[O-])cc2)nc(SCc2ccc(C(C)(C)C)cc2)n1	8	8
COCCn1nc(C(=O)N=c2sccn2Cc2ccc(C)cc2)ccc1=O	2	0
COc1ccc2c(c1OC)CN(C)CCc1cc3c(cc1C(O)C2)OCO3 (stereo not given)	0	-1
C=CCn1c(=O)c2c(nc3n(C(C)c4ccccc4)c(C)c(C)n23)n(C)c1=O (stereo not given)	2	-2
CC(C)C(=O)N1CCC(Nc2snc(Cl)c2C#N)CC1	4	3
Cc1nc(C)n(CC2CCCN(C(C)c3cccnc3)C2)n1 (stereo not given)	-1	-6
CCNC(=O)N(C)c1c(CC)nc2ccc(C(=O)N3CCN(C(=O)c4ccco4)CC3)cn12	-4	-6
CN(CCC1CCOCC1)c1nccc(N2CCC(O)C2)n1 (stereo not given)	-17	-15
Cc1cc(C)cc(N2CCN(Cc3ccc(-c4ccn[nH]4)o3)CC2=O)c1	6	5
CC(C)(CNC(=O)N1CCS(=O)(=O)CC1)c1cccc(Cl)c1	5	4
COc1ccc(O)c(C(C)NC(=O)c2cc(C)nn2C)c1 (stereo not given)	2	3
CCOC(=O)C1=C(C)NC(C)=C(C(=O)OC)C1c1cccc([N+](=O)[O-])c1 (stereo not given)	-5&10&-3&2	-8&8&-7&5
CC(c1cccc(-c2c(-c3ccccc3)ncn2CCF)c1)N(C)C (stereo not given)	-1	-6
O=C1CC(Nc2ccc(Br)cc2)C=C1Nc1ccc(Br)cc1 (stereo not given)	-13&4	-18&0
CCCc1cnc(C)nc1N1C[C@H]2C[C@H](C1)[C@@H]1CCCC(=O)N1C2	-11	-12
